Sfp PPTase inh = qHTS Assay for Inhibitors of Bacillus subtilis Sfp phosphopantetheinyl transferase (PPTase) | 4'-phosphopantetheinyl transferase ffp (Bacillus subtilis), Q9F4F7 | Potency, µM, for the others: max response, negative = inhibition, actives largely listed as inhibitors | 310,000 tested, 3.5% active | Biochemical Sfp PPTase activity, qHTS | AID 1490, 2009; active means well fitted inhibition curve with a large enough effect; inconclusive means small, poorly fitted or top-dose-only effect, or another doubt; inactive means no such curve, though single readings can be large or run the other way;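 further: the enzyme is Sfp with the accession as filed and its product quenches rhodamine fluorescence; potency means the concentration at half of the fitted maximal effect; 0% = enzyme reaction without inhibitor and -100% = no enzyme wells; top concentration of the series not given in the record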
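Buffer: 50 mM Hepes-Na pH 7.6, 10 mM MgCl2, 0.01% Nonidet P-40, 0.01% BSA. Enzyme 15 nM, pre-exposed to compound 15 min; substrates then added and fluorescence change tracked over 30 min.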
Menin-MLL FL inh = qHTS Assay for Inhibitors Targeting the Menin-MLL Interaction in MLL Related Leukemias: Competition With Fluorescein Labeled MLL-derived Peptide; Fluorescence polarization, fluorescein-MLL peptide displacement from menin; FP activity change, % at 61.4 µM; 290,000 tested, under 10 active; AID 1766, 2009; inconclusive = falling polarisation curve, or a change in total fluorescence; inactive = total fluorescence flat and polarisation flat or rising; no compound was filed as active; the % refers to the polarisation; negative = inhibition;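 further: % of control where 0% means no effect; inhibitors lower the polarisation; unlabelled MLL peptide was the positive control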
TRPV1 potentiator = HTS Assay for Compounds that Act as Potentiators of the Vanilloid Receptor 1; Transient receptor potential cation channel subfamily V member 1 (Homo sapiens), Q8NER1; TRPV1-expressing cells, Fluo-8 calcium influx, capsaicin EC20 potentiation; host cell line not named in the record; control for the full effect not named in the record; potentiation, % at 8.33 µM; 320,000 tested, 0.02% active; AID 540277, 2011; active means potentiation above 80%; inconclusive means 30% to 80%; inactive means below 30%; further: 0% is about no effect
Target sequence (Q8NER1 whole entry, looked up): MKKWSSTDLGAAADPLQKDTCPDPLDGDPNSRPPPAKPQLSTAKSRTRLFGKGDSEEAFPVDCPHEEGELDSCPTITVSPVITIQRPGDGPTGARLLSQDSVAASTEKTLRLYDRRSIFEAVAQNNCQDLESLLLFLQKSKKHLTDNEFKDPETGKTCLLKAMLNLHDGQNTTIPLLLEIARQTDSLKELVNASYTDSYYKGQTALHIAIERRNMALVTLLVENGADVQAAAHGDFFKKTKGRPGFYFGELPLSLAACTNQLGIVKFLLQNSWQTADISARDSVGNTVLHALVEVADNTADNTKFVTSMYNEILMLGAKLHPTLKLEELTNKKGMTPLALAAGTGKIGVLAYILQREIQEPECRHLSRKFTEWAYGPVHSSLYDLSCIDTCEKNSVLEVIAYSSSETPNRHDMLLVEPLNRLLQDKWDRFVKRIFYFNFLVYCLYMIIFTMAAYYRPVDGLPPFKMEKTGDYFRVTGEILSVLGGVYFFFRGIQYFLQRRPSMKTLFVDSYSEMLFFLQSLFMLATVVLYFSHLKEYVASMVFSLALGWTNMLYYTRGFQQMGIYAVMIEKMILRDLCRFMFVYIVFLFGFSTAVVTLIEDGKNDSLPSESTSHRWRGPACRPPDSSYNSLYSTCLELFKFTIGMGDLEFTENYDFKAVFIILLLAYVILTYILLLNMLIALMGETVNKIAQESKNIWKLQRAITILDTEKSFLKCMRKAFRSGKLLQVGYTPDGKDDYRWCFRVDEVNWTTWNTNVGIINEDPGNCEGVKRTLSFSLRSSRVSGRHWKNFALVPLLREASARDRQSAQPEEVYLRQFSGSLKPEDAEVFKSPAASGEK
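TRPV1-expressing cells were cultured overnight at 35.5C and loaded with Fluo-8 calcium dye for 40 to 90 min at room temperature. After a 10 s baseline, compound was added and calcium influx was read kinetically for 3 min (ex 480/em 520 nm).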
ClpP mod = qHTS Assay for Activators of ClpP; 340,000 tested, 1.9% active; ATP-dependent Clp protease proteolytic subunit (Bacillus subtilis (strain 168)), P80244; purified B. subtilis ClpP, FRET peptide cleavage, 20 min; AID 651965, 2013; Potency, µM (titrated, usually from 57.5 µM), without a hit: at the top dose activity change, negative = active; active = well fitted falling curve with a large enough effect; inconclusive = small, poorly fitted or top-dose-only effect; inactive = no such curve, though single readings can be large or run the other way; further: potency means the concentration at half of the fitted maximal effect; the source files actives as falling curves though it sought activators and does not explain the sign; nearly all actives have a fitted effect of over 65% in size; many hits overshoot -100%
Target sequence (P80244 whole entry, looked up): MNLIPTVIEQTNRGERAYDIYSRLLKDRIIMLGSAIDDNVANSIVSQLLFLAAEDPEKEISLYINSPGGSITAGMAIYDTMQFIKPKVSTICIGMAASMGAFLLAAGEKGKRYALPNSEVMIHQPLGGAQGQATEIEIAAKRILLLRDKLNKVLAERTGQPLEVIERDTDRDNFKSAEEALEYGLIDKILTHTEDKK
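ClpP 10 microg/mL final, pH 8 Tris/KCl buffer with BSA, glycerol, Tween-20; compound pinned in; FRET-FV substrate; RT 20 min; Ex320/Em430; ΔFRET vs ADEP 5.8 microM, DMSO, no enzyme.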
gsp ag = qHTS for Agonist of gsp, the Etiologic Mutation Responsible for Fibrous Dysplasia/McCune-Albright Syndrome: qHTS. gsp mutant cells, cAMP HTRF, 30 min; control for the full effect not named in the record. Potency, µM (highest dose often 76.9 µM), without a hit: top-dose activation (cAMP increase), actives largely listed as activators. 340,000 tested, 0.13% active. AID 624287, 2012; active = well fitted activation curve with a large enough effect; inconclusive = small, poorly fitted or top-dose-only effect, or another doubt; inactive = no such curve, though single readings can be large or run the other way; cell line not stated here;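 further: phosphodiesterase inhibitor Ro 20-1724 added with compounds to block cAMP breakdown; potency means the concentration at half of the fitted maximal effect; nearly all actives have a fitted effect of over 60% in size; about a fifth of the inactives were tested at one dose only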
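Cells in DMEM/10% FBS with G418 were pretreated with compounds in DMSO plus […] (300 uM stock) for 30 min at 37C. cAMP was measured by HTRF (cAMP-d2 plus anti-cAMP antibody-K) after 30 min at room temperature.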
gsp antagonist = qHTS for Antagonists of gsp, the Etiologic Mutation Responsible for Fibrous Dysplasia/McCune-Albright Syndrome: qHTS | gsp-mutant cells, cAMP HTRF, 30 min; control for the full effect not named in the record | Potency, µM (titrated, usually from 76.9 µM), inactives show at the top dose activity change, negative = inhibition, most hits filed as inhibitors | 340,000 tested, 0.4% active; active = falling curve of any shape with a large fitted effect; inconclusive = falling curve, mostly with a smaller effect; inactive = flat or rising curve; cell line not stated here;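 further: intracellular cAMP measured with PDE inhibitor Ro 20-1724 present during compound exposure; potency means the concentration at half of the fitted maximal effect; on the % scale 0 is the no-effect control and ±100 the full control effect; nearly all actives have a fitted effect of over 65% in size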
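HTRF cAMP read-out (cAMP-d2 plus anti-cAMP antibody-K in lysis buffer, 30 min RT). Before lysis, cells are exposed to compounds with […] for 30 min at 37C in DPBS containing Ca/Mg, BSA and Tween 20.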
CtBP-E1A inh = qHTS Assay for Inhibitors of the CtBP/E1A Interaction. AlphaScreen GST-E1A/His-CtBP binding, 1536-well; active compounds read low; control for the full effect not named in the record. activity change, % (test concentration not listed). 340,000 tested, 0.49% active. AID 651724, 2012; in the data active means activity change below about -65%; inconclusive means about -30% to -65%; inactive means above about -30%; further: on the % scale 0 is the no-effect control and ±100 the full control effect
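Homogeneous bead-based format: GST-tagged E1A captured on glutathione donor beads, His-tagged CtBP on nickel acceptor beads; compounds precede bead addition by 2 h at 37 °C.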
* hit, by the source's call; ? = inconclusive; / = no result given; [ ] = another dose, or the depositor's remark.

SMILES	Sfp PPTase inh	Menin-MLL FL inh	TRPV1 potentiator	ClpP mod	gsp ag	gsp antagonist	CtBP-E1A inh
CC1=Nc2ccccc2N=C(NC(=O)CN2CCN(c3ccc(F)cc3)CC2)C1c1ccccc1 (stereo not given)	17%	1.6	11	/	0%[15.4 µM]	-23%	0
CCO[C@@H]1OC(C(=O)Nc2ccccc2)=C[C@H](C2CC2)[C@H]1CCCO	4%	-2.8	?	1.9%	/	-12%	5
COc1ccc(CC(=O)O/N=C(\N)c2ccncc2)cc1OC	/	/	/	0.8%	-18%	/	5
O=C(O)C(Cc1ccccc1)N1C(=O)/C(=C/c2cccs2)SC1=S (stereo not given)	-22%	4.9	10	/	-36%[inhibitor]	-8%	?
CCc1ccc(C(=O)Cn2ccsc2=N)cc1	9%	1.8	2	/	3%	5%	0
CCC(C)NC(=O)c1cc2c(=O)n(CC)c3ccccc3c2s1 (stereo not given)	12%	2.0	-5	0.1%	6%[15.4 µM]	-5%	8
CCCC(c1nnnn1CCOC)N1CCN(C(=O)c2ccco2)CC1 (stereo not given)	-1%	-0.1	-3	-4.9%	19%	7%[15.4 µM]	2
CC(=O)C1=C(C)Nc2ncnn2C1c1cccc(O)c1 (stereo not given)	8%	-4.6	0	-0.4%	-37%[inhibitor]	11%	3
Cc1cc(C)nc(N/N=C/c2cccc(Cl)c2)n1	9%	-2.1	-3	-3.4%	-27%	-8%	/
O=S(=O)(N1CCCCC1)N1CCNCC1	1%	3.3	-2	0.1%	-28%	7%	7
O=C(Nc1cccc(F)c1)C1CCN(C(=O)Cc2ccccc2)CC1	17%	0.1	-8	-0.7%	?	22%	0
COc1ccc(N2CC(C(=O)Nc3nnc(SCC(=O)c4ccccc4)s3)CC2=O)cc1 (stereo not given)	28µM*	8.3	-4	4.9%	-5%	?	13
COc1ccc(-c2nnc(SCC(=O)c3ccc(C)o3)o2)cc1	-4%	2.1	22	0.1%	-23%	-6%	-10
CCOc1ccccc1C1C2=C(COC2=O)Nc2cc3c(cc21)OCO3 (stereo not given)	6%	-2.0	-2	/	2%[15.4 µM]	3%	-4
Cc1ccc(NC(=O)Cc2ccsc2)cc1S(=O)(=O)N1CCOCC1	/	/	/	0.2%	7%[15.4 µM]	-4%	-3

Profiles, looked up by structure:
Entry for `CCC(C)NC(=O)c1cc2c(=O)n(CC)c3ccccc3c2s1` (stereo not given) → Sfp PPTase inh = 12%; Menin-MLL FL inh = 2.0; TRPV1 potentiator = -5; ClpP mod = 0.1%; gsp ag = 6%[15.4 µM]; gsp antagonist = -5%; CtBP-E1A inh = 8
Entry for `O=C(O)C(Cc1ccccc1)N1C(=O)/C(=C/c2cccs2)SC1=S` (stereo not given) → Sfp PPTase inh = -22%; Menin-MLL FL inh = 4.9; TRPV1 potentiator = 10; ClpP mod = /; gsp ag = -36%[inhibitor]; gsp antagonist = -8%; CtBP-E1A inh = ?

Back to the main list, starting 3 compounds before the break.
SMILES	Sfp PPTase inh	Menin-MLL FL inh	TRPV1 potentiator	ClpP mod	gsp ag	gsp antagonist	CtBP-E1A inh
COc1ccc(-c2nnc(SCC(=O)c3ccc(C)o3)o2)cc1	-4%	2.1	22	0.1%	-23%	-6%	-10
CCOc1ccccc1C1C2=C(COC2=O)Nc2cc3c(cc21)OCO3 (stereo not given)	6%	-2.0	-2	/	2%[15.4 µM]	3%	-4
Cc1ccc(NC(=O)Cc2ccsc2)cc1S(=O)(=O)N1CCOCC1	/	/	/	0.2%	7%[15.4 µM]	-4%	-3
CCOc1cc(OCC)cc(C(=O)NCCCN2CCOCC2)c1	5%	-0.9	2	1.9%	-8%[15.4 µM]	16%	4
Cc1ccc(SC2CCN(C(=O)C3CCC(=O)N(C4CC4)C3)CC2)cc1 (stereo not given)	11%	-0.9	-6	-2.3%	-2%	-4%	2
Cc1ccc(C(CC(=O)N2CCOCC2)c2ccco2)cc1 (stereo not given)	-15%	18	-9	0.7%	-17%	11%	1
COc1cc(C2NC(=O)NC(C)=C2C(=O)OCC2CCCO2)ccc1O (stereo not given)	0%	2.1	3	0.6%	8%	12%	22
Cc1ccc(CC(=S)N2CCOCC2)cc1	35µM*	-1.9	-3	/	-8%	2%	8
CCc1cc2c(SCC(=O)NC3CC3)ncnc2s1	/	/	/	-1.5%	-5%	-10%	2
COc1ccc2oc(-c3ccc(NC(=O)c4ccc(N5CCOCC5)c([N+](=O)[O-])c4)cc3)nc2c1	4%	1.5	1	-15%	-35%[inhibitor]	-13%	-4
COc1ccc(CN(CC(=O)NCc2ccco2)C(=O)CNS(=O)(=O)c2ccc(C)cc2)cc1	7%	1.2	3	/	12%[15.4 µM]	0%	-1
COCCn1c(Cc2ccccc2)nnc1SC(C)C(=O)NC1CC1 (stereo not given)	/	/	-8	-2.4%	11%	5%	-1
Cc1cc(NC(=O)COC(=O)CSc2nc3cc(Cl)ccc3n2Cc2ccccc2)no1	?	3.3	26	-1.5%	21%	-21%	-1
Cc1c(NC(=O)C2CC=CCC2C(=O)O)c(=O)n(-c2ccccc2)n1C (stereo not given)	9%	3.8	8	-8.1%	-30%	6%	6
COc1ccccc1N1CCN(C(=O)/C=C/c2cccs2)CC1	-27%	-0.3	-10	0.3%	-13%	12%	4
Cc1cc(NC(=O)Cc2ccccc2[N+](=O)[O-])no1	7%	-2.2	1	0.9%	-17%	2%	/
COc1cc(Cn2nnc3ccccc32)cc(Br)c1O	10%	-0.3	10	-0.2%	15%	-5%	/
Cc1ccc(-c2nnn(CC(=O)N(c3ccccc3)C(C(=O)NCC3CCCO3)c3ccc(F)cc3)n2)o1 (stereo not given)	24%	-5.5	1	/	-4%	4%	0
Cc1ccc(-n2c(SCc3cn4ccsc4n3)nc3ccccc3c2=O)cc1	2%	1.8	3	-2.9%	-18%	5%	-7
CC(C)Oc1cc(O)c2c(=O)c(-c3ccc(O)cc3)coc2c1	10%	3.6	?	-1.6%	17%	3%	-7
COc1ccc(Cc2nnc(NC(=O)c3ccccc3C)s2)cc1	9%	4.4	?	-1.8%	?	9%	-12
Cc1ccccc1-c1cc2nc(-c3ccc([N+](=O)[O-])cc3)cc(=O)n2[nH]1	-14%	1.0	0	/	-20%	-3%	-5
COCCNC(=O)NC(=O)COC(=O)C12CC3CC(CC(NC(C)=O)(C3)C1)C2	21%	-1.4	0	1.0%	-36%[inhibitor]	6%	19
Cc1ccc(CNC(=O)C(=O)NCC2CCCN2S(=O)(=O)c2cccs2)cc1 (stereo not given)	/	/	-13	-26%	13%	9%	3
CCn1c(=O)cc(SCC(=O)NCCCN2CCN(c3ccc(F)cc3)CC2)c2ccccc21	13%	0.4	6	-7.0%	22µM*	-6%	23
Cc1ccc(SC(C)C(=O)N2CCCC2)cc1 (stereo not given)	16%	1.1	-4	-2.1%	-1%	7%	0
CN(CC(=O)Nc1ncn[nH]1)S(=O)(=O)c1ccc(Br)cc1	5%	/	-15	-1.0%	-47%	9%	-3
COc1ccc(C)cc1NC(=O)c1cc(C2CC2)nc2c1c(C)nn2C1CCS(=O)(=O)C1 (stereo not given)	/	/	/	-1.7%	-7%	-27%	3
Cc1oc(-c2cccc(C(F)(F)F)c2)nc1CN1CCOCC1	-8%	-0.3	5	/	-25%	7%	9
COC(=O)CSc1cc(C)nc(SC)n1	20%	-1.3	4	0.8%	-2%	-11%	10
CC1C=CCC2C(=O)N(c3cccc(C(=O)N4CCCCCC4)c3)C(=O)C12 (stereo not given)	/	/	/	0.9%	9%	3%	-1
CCCCS(=O)(=O)/C=C/[C@H]1[C@H](S(=O)(=O)CCCC)[C@H]2C=C[C@@H]1C2	8%	-2.2	7	-2.9%	-65%[inhibitor]	-15%	7
CCC(CC)C(=O)Nc1c2c(nn1-c1ccc(OC)cc1)CS(=O)C2 (stereo not given)	12%	?	-16	2.1%	-27%	5%	1
Cc1cc(C(=O)CCC(=O)N2CCN(S(=O)(=O)c3cccs3)CC2)c(C)s1	13%	3.4	0	1.1%	-1%[15.4 µM]	-17%	-1
O=C(COC(=O)c1ccc(O)cc1)NCCCc1ccccc1	21%	-3.4	0	/	-24%[15.4 µM]	8%	10
COc1ccc(-c2c(C#N)c(N)nc3c2CCC3)cc1	12%	-3.5	6	3.6%	27%	-1%	/
COc1ccccc1N1CCN(C(=O)c2ccc(-c3ccccc3)cc2)CC1	-10%	-0.4	-19	0.1%	-14%	-7%	/
CC1C2CCC(C2)C1OC(=O)c1ccccc1C(=O)O (stereo not given)	/	/	/	0.4%	3%	/	3
Cc1ccc(NC(=O)CCCSc2nc3ccccc3[nH]2)cc1	-2%	1.6	2	/	14%[15.4 µM]	-9%	0
CCC1=C(NCc2ccccc2)COC1=O	/	/	/	3.0%	-7%	/	5
CCOc1ccccc1N(C)C(=O)c1cc2c(=O)n(CC)c3ccccc3c2s1	-12%	1.7	-3	-8.2%	-53%[inhibitor]	-16%	0

6 compounds already listed, ordered by the number in Sfp PPTase inh, smallest number first:
smiles	Sfp PPTase inh	Menin-MLL FL inh	gsp ag	gsp antagonist	CtBP-E1A inh
CCOc1ccccc1N(C)C(=O)c1cc2c(=O)n(CC)c3ccccc3c2s1	-12%	1.7	-53%[inhibitor]	-16%	0
COc1ccccc1N1CCN(C(=O)c2ccc(-c3ccccc3)cc2)CC1	-10%	-0.4	-14%	-7%	/
Cc1ccc(NC(=O)CCCSc2nc3ccccc3[nH]2)cc1	-2%	1.6	14%[15.4 µM]	-9%	0
COc1ccc(-c2c(C#N)c(N)nc3c2CCC3)cc1	12%	-3.5	27%	-1%	/
Cc1cc(C(=O)CCC(=O)N2CCN(S(=O)(=O)c3cccs3)CC2)c(C)s1	13%	3.4	-1%[15.4 µM]	-17%	-1
O=C(COC(=O)c1ccc(O)cc1)NCCCc1ccccc1	21%	-3.4	-24%[15.4 µM]	8%	10
